TRPML1 blocker: qHTS for Inhibitors of the Human Mucolipin Transient Receptor Potential 1 (TRPML1); AID 624415, 2012; TRPML1-inducible cells, Ca2+ dye fluorescence, FDSS; active compounds read low; inhibition of EC80 agonist-evoked calcium signal; 0.02% of 390,000 active; activity change, negative = inhibition, % (no concentration beside the values); in the data active means activity change below about -50%; inconclusive means about -30% to -50%; inactive means above about -30%;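 further: stimulus is agonist 54-4 at its EC80 concentration; on the % scale 0 is the no-effect control and ±100 the full control effect; compound concentration not given in the record; the text of the record puts the active cut at -80%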
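Tet-induced TRPML1-DL cells loaded with Ca8 no-wash calcium dye were read kinetically on FDSS. Compound addition was followed by EC80 agonist 54-4 (4 uM final); inhibition was read over 110 s.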
TRPV1 PAM: HTS Assay for Compounds that Act as Potentiators of the Vanilloid Receptor 1 | potentiation, % at 8.33 µM | TRPV1-expressing cells, Fluo-8 calcium influx, capsaicin EC20 potentiation; host cell line not named in the record; control for the full effect not named in the record | 0.02% of 320,000 active | Transient receptor potential cation channel subfamily V member 1 (Homo sapiens), Q8NER1; active means potentiation above 80%; inconclusive means 30% to 80%; inactive means below 30%; further: 0% is about no effect
Target sequence (Q8NER1 whole entry, looked up): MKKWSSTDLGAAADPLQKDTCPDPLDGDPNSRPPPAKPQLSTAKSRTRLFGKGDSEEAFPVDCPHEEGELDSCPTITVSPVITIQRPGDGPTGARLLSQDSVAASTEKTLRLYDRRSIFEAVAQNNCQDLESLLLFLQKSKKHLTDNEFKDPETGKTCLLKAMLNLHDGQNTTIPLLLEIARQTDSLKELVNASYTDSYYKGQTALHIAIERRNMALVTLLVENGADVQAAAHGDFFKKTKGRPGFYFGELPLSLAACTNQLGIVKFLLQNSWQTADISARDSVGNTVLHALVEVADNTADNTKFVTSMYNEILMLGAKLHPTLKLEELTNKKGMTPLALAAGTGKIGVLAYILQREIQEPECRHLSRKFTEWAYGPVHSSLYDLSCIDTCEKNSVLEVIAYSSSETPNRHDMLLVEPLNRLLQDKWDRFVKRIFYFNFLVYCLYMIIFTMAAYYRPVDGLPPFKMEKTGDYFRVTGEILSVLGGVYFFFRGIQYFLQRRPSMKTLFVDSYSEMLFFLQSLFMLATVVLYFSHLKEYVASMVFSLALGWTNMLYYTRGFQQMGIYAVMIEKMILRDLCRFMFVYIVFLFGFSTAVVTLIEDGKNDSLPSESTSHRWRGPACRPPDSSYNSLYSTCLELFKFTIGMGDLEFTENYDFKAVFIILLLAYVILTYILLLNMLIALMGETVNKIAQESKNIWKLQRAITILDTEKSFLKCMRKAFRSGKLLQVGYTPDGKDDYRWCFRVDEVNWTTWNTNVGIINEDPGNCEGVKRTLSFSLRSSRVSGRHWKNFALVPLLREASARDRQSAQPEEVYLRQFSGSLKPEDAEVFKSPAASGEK
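Fluo-8 calcium influx in TRPV1-expressing cells, kinetic read (ex 480/em 520 nm). Compound added and read 3 min for agonist activity, followed by capsaicin at EC20 final and 2 min further read for enhancement.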
Sfp inh: qHTS Assay for Inhibitors of Bacillus subtilis Sfp phosphopantetheinyl transferase (PPTase). Biochemical Sfp PPTase activity, qHTS. 3.5% of 310,000 active. 4'-phosphopantetheinyl transferase ffp (Bacillus subtilis), Q9F4F7. Potency, µM, for the others: max response, negative = inhibition, actives largely listed as inhibitors; active means well fitted inhibition curve with a large enough effect; inconclusive means small, poorly fitted or top-dose-only effect, or another doubt; inactive means no such curve, though single readings can be large or run the other way;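 further: the enzyme is Sfp with the accession as filed and its product quenches rhodamine fluorescence; potency means the concentration at half of the fitted maximal effect; 0% = enzyme reaction without inhibitor and -100% = no enzyme wells; top concentration of the series not given in the record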
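After 15 min at room temperature with compound, 15 nM Sfp received 5 uM rhodamine-CoA plus 12.5 uM BHQ-2-ybbR (50 mM Hepes pH 7.6, 10 mM MgCl2). Rate came from the fluorescence difference over 30 min, ex 525/em 598 nm.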
gsp antagonist: qHTS for Antagonists of gsp, the Etiologic Mutation Responsible for Fibrous Dysplasia/McCune-Albright Syndrome: qHTS | gsp-mutant cells, cAMP HTRF, 30 min; control for the full effect not named in the record | Potency, µM (doses to about 76.9 µM), for the others: at the top dose activity change, negative = inhibition, usual class: inhibitors | 0.4% of 340,000 active; active = falling curve of any shape with a large fitted effect; inconclusive = falling curve, mostly with a smaller effect; inactive = flat or rising curve; cell line not stated here;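 further: intracellular cAMP measured with PDE inhibitor Ro 20-1724 present during compound exposure; potency means the concentration at half of the fitted maximal effect; on the % scale 0 is the no-effect control and ±100 the full control effect; nearly all actives have a fitted effect of over 65% in size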
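Cells, 2000/well, grown 16–24 h in DMEM 10% FBS with 0.5 mg/ml G418, then compounds plus […] (300 uM addition stock), 30 min at 37C. cAMP read by HTRF (cAMP-d2 and anti-cAMP antibody-K in lysis buffer) after 30 min RT.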
ClpP mod: qHTS Assay for Activators of ClpP. 1.9% of 340,000 active. Potency, µM (series often up to 57.5 µM), for inactives: at the top dose activity change, negative = active. AID 651965, 2013. ATP-dependent Clp protease proteolytic subunit (Bacillus subtilis (strain 168)), P80244. purified B. subtilis ClpP, FRET peptide cleavage, 20 min; active = well fitted falling curve with a large enough effect; inconclusive = small, poorly fitted or top-dose-only effect; inactive = no such curve, though single readings can be large or run the other way; further: potency means the concentration at half of the fitted maximal effect; the source files actives as falling curves though it sought activators and does not explain the sign; nearly all actives have a fitted effect of over 65% in size; many hits overshoot -100%
Target sequence (P80244 whole entry, looked up): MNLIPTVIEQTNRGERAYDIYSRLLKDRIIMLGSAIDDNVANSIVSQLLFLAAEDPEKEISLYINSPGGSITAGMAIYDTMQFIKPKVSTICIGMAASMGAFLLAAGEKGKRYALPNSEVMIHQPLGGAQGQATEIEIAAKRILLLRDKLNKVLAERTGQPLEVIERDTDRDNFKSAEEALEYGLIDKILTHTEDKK
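FRET quenching reversal measured ClpP activation: 10 microg/mL B. subtilis ClpP at pH 8 with the FRET-FV decapeptide, read at 430 nm after 320 nm excitation. The 20-min minus 0-min signal was scaled between DMSO/no-enzyme wells and ADEP (5.8 microM final).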
Menin-MLL FL inh: qHTS Assay for Inhibitors Targeting the Menin-MLL Interaction in MLL Related Leukemias: Competition With Fluorescein Labeled MLL-derived Peptide. Fluorescence polarization, fluorescein-MLL peptide displacement from menin. FP activity change, % at 61.4 µM. 290,000 tested, under 10 active. AID 1766, 2009; inconclusive = falling polarisation curve, or a change in total fluorescence; inactive = total fluorescence flat and polarisation flat or rising; no compound was filed as active; the % refers to the polarisation; negative = inhibition;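 further: % of control where 0% means no effect; inhibitors lower the polarisation; unlabelled MLL peptide was the positive control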
gsp ag: qHTS for Agonist of gsp, the Etiologic Mutation Responsible for Fibrous Dysplasia/McCune-Albright Syndrome: qHTS | gsp mutant cells, cAMP HTRF, 30 min; control for the full effect not named in the record | Potency, µM (titrated, usually from 76.9 µM), for the others: at the top dose activation (cAMP increase), usual class: activators | 0.13% of 340,000 active | AID 624287, 2012; active = well fitted activation curve with a large enough effect; inconclusive = small, poorly fitted or top-dose-only effect, or another doubt; inactive = no such curve, though single readings can be large or run the other way; cell line not stated here;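 further: phosphodiesterase inhibitor Ro 20-1724 added with compounds to block cAMP breakdown; potency means the concentration at half of the fitted maximal effect; nearly all actives have a fitted effect of over 60% in size; about a fifth of the inactives were tested at one dose only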
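Cells in DMEM/10% FBS with G418 were pretreated with compounds in DMSO plus […] (300 uM stock) for 30 min at 37C. cAMP was measured by HTRF (cAMP-d2 plus anti-cAMP antibody-K) after 30 min at room temperature.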
Numbers without * were called inactive; ? = inconclusive; · = not tested or not shown; [ ] = remark or other dose. The order is random (roughly 4.9% active in at least one column).

no.	molecule	ClpP mod	gsp antagonist	TRPML1 blocker	Menin-MLL FL inh
1	O=C(CSc1ccc(-c2cccnc2)nn1)Nc1ccccc1F	-4.4%	-1%	-3	1.8
2	CCNc1nc2c(c(=O)[nH]c(=O)n2C)n1CC(C)C	-1.7%	8%	1	0.4
3	S=c1nc(C2COc3ccccc3O2)[nH][nH]1 (stereo not drawn)	·	3%	3	-3.0
4	COc1ccc(CC(=O)N(C)CC(=O)Nc2ccc(F)cc2)cc1S(=O)(=O)N1CCOCC1	0.0%	7%	-5	·
5	Cc1cccc(NC(=O)NC2CCCCCCC2)c1C	1.4%	1%	17	·
6	C=CCn1c(N2CCN(c3ccc(OC)cc3)CC2)nc2c1c(=O)n(C)c(=O)n2C	0.6%	-12%	8	4.9
7	CCC(OC(=O)c1nsc(Cl)c1Cl)C(=O)NCCc1ccccc1 (stereo not drawn)	·	1%	11	-1.6
8	N#CCCN1CCN(S(=O)(=O)c2ccc(S(=O)(=O)NCc3ccccc3)cc2)CC1	1.3%	4%	2	3.1
9	O=C(O)C1CCCCC1C(=O)NCc1ccccc1 (stereo not drawn)	0.6%	12%	23	1.2
10	CCN(CCCNC(=O)CN1C(=O)COc2ccccc21)c1ccccc1	-2.8%	-6%	4	2.9
11	Cc1cc(S(=O)(=O)N2CCN(CC(=O)N(C)Cc3ccccc3)CC2)ccc1Br	-2.3%	-14%	-14	·
12	COc1ccc(N2CCN(C(=O)CSc3nc4ccccc4c(=O)[nH]3)CC2)cc1	·	-24%	14	0.5
13	C[C@H](CO)N1C[C@H](C)[C@@H](CN(C)S(=O)(=O)c2ccc(F)cc2)Oc2c(NC(=O)Nc3ccccc3)cccc2C1=O	-0.3%	-11%	-17	·
14	O=C(NCC(=O)N1CCOCC1)c1ccc(Cl)cc1	-0.6%	-1%	-3	·
15	Cc1ccc(NS(=O)(=O)c2ccc(C(=O)N3CCC3)cc2)cc1	·	1%	-2	·

no.	gsp ag	Sfp inh	TRPV1 PAM
1	0%	-6%	12
2	0%	12%	-14
3	14%	22µM*	-10
4	8%	·	-2
5	-23%	8%	-2
6	5%[15.4 µM]	-15%	11
7	-17%	3%	12
8	16%	16%	-8
9	5%	22%	-6
10	2%	7%	2
11	3%[15.4 µM]	·	0
12	-37%[inhibitor]	17%	?
13	-15%	·	·
14	-36%[inhibitor]	5%	-10
15	15%[15.4 µM]	·	7

The listing continues:
no.	molecule	ClpP mod	gsp antagonist	TRPML1 blocker	Menin-MLL FL inh
16	Cc1nc2ccccc2c(=O)n1-c1ccc(NS(=O)(=O)c2cc(F)ccc2F)cc1	-1.1%	-10%	-11	·
17	C=CCNC(=O)c1onc(CSc2ccc(F)cc2)c1C(=O)O	2.5%	-5%	8	-1.5
18	CCCCn1cnc2c(oc3nc4c(cc32)CCCC4)c1=O	?	-6%	1	-3.1
19	COc1ccc(C(=O)C(C)Oc2cccc(NC(=O)c3cccc([N+](=O)[O-])c3)c2)cc1 (stereo not drawn)	-12%	-24%	8	5.6
20	O=C(COC(=O)c1ccccc1F)Nc1cccnc1Cl	·	14%	-3	-4.8
21	c1ccc(CN(Cc2ccccc2)c2ncnc3c2nnn3Cc2ccccc2)cc1	-4.0%	18%	14	0.0
22	Cc1cccc(-n2ncc3c(Nc4c(C)n(C)n(-c5ccccc5)c4=O)ncnc32)c1	-2.1%	2%	-8	-1.2
23	CC1(C)CC(NC(=O)COc2ccc(Br)cc2Cl)CC(C)(C)N1	0.0%	13%	-16	·
24	O=S(=O)(NCc1ccccc1)NCc1ccc(Cl)cc1Cl	0.3%	5%	13	-2.6
25	O=C(NC1CCCC1)c1cc2cc(Br)ccc2o1	-1.1%	8%	12	-1.3
26	Cc1ccc(S(=O)(=O)CCc2nnc(NC(=O)CCl)s2)cc1C	·	0%	-4	0.2
27	O=S(=O)(c1ccccc1)c1nc(NCc2ccccc2)sc1Cl	0.5%	7%	-4	1.3
28	O=C(c1cc2ncc(Br)cn2n1)N1CCOCC1	-0.5%	2%	7	-0.3
29	O=C(NCc1ccccc1)N1CCN(c2ccc(F)cc2)CC1	-0.9%	14%	26	4.3
30	COc1ccc(CCNC(=O)c2ccccc2C(=O)NCCc2ccc(OC)cc2)cc1	0.9%	2%	-2	·

no.	gsp ag	Sfp inh	TRPV1 PAM
16	?	·	11
17	24%	-1%	10
18	?	3%	?
19	-36%[inhibitor]	8%	-23
20	0%[15.4 µM]	2%	9
21	12%[15.4 µM]	15%	-3
22	?	7%	-15
23	?	12%	23
24	31%	-1%	-4
25	2.5µM*	9%	2
26	?	1%	7
27	7%	1%	-2
28	28%	10%	4
29	-34%[inhibitor]	-3%	-21
30	0%	·	·

Records 16 through 24 of the list above:
no.	molecule	ClpP mod	gsp antagonist	TRPML1 blocker	Menin-MLL FL inh
16	Cc1nc2ccccc2c(=O)n1-c1ccc(NS(=O)(=O)c2cc(F)ccc2F)cc1	-1.1%	-10%	-11	·
17	C=CCNC(=O)c1onc(CSc2ccc(F)cc2)c1C(=O)O	2.5%	-5%	8	-1.5
18	CCCCn1cnc2c(oc3nc4c(cc32)CCCC4)c1=O	?	-6%	1	-3.1
19	COc1ccc(C(=O)C(C)Oc2cccc(NC(=O)c3cccc([N+](=O)[O-])c3)c2)cc1 (stereo not drawn)	-12%	-24%	8	5.6
20	O=C(COC(=O)c1ccccc1F)Nc1cccnc1Cl	·	14%	-3	-4.8
21	c1ccc(CN(Cc2ccccc2)c2ncnc3c2nnn3Cc2ccccc2)cc1	-4.0%	18%	14	0.0
22	Cc1cccc(-n2ncc3c(Nc4c(C)n(C)n(-c5ccccc5)c4=O)ncnc32)c1	-2.1%	2%	-8	-1.2
23	CC1(C)CC(NC(=O)COc2ccc(Br)cc2Cl)CC(C)(C)N1	0.0%	13%	-16	·
24	O=S(=O)(NCc1ccccc1)NCc1ccc(Cl)cc1Cl	0.3%	5%	13	-2.6

no.	gsp ag	Sfp inh	TRPV1 PAM
16	?	·	11
17	24%	-1%	10
18	?	3%	?
19	-36%[inhibitor]	8%	-23
20	0%[15.4 µM]	2%	9
21	12%[15.4 µM]	15%	-3
22	?	7%	-15
23	?	12%	23
24	31%	-1%	-4

(continued)
no.	molecule	ClpP mod	gsp antagonist	TRPML1 blocker	Menin-MLL FL inh
31	C[C@H]1CN([C@@H](C)CO)C(=O)c2cccc(NC(=O)Nc3ccc(C(F)(F)F)cc3)c2O[C@@H]1CN(C)C(=O)Nc1ccc(F)cc1	3.5%	?	-3	·
32	O=C(COc1coc(CN2CCc3ccccc3C2)cc1=O)Nc1ccc(F)cc1	1.8%	-4%	13	·
33	COC(=O)CNC(=O)CNC(=O)c1nn(-c2ccc(OC)c(OC)c2)c(=O)c2ccccc12	-3.6%	5%	-2	-1.2
34	O=c1[nH]c2ccccc2n1C1=CCCC1	-1.7%	10%	58	3.1
35	CCSc1nc(=S)cc(C)[nH]1	-1.1%	-10%	3	2.8
36	Cc1ccc(-c2nc(CSCC(=O)Nc3cc(C)on3)c(C)o2)cc1	-0.2%	-6%	22	1.9
37	O=C(CNC(=O)c1ccc(Br)cc1)c1ccccc1	1.7%	2%	-2	0.9
38	CCN(c1ccccc1)S(=O)(=O)c1cccc(C(=O)N(C)CC(=O)Nc2ccc(F)c(F)c2F)c1	0.4%	-1%	-4	·
39	COC(=O)c1c(NC(=O)CC2Sc3ccc(C(F)(F)F)cc3NC2=O)sc(C)c1C (stereo not drawn)	-5.2%	-2%	0	7.8
40	Cc1c(C(=O)NCc2cccnc2)oc2ccc(S(=O)(=O)N3CCCCCC3)cc12	1.1%	-15%	8	1.5
41	CCN1CCN(S(=O)(=O)c2ccc(Cl)c(C(=O)N(C)Cc3ccc(C(C)(C)C)cc3)c2)CC1	-0.1%	?	-9	·
42	N#Cc1ccc(NC(=O)COC(=O)C2=COCCO2)cc1	1.7%	-13%	9	1.2
43	CC(C)(C)OC(=O)N1CCCN(C(=O)c2ccc(Cl)cc2)CC1	·	10%	-23	-0.4
44	OC1CC(c2ccco2)NC2(CCCCC2)C1 (stereo not drawn)	-1.4%	0%	-9	9.4
45	CC(C)CC(=O)OCC(=O)Nc1ccccc1Sc1ccccc1	0.4%	-2%	23	5.6
46	CSc1nnc(Cn2c(=O)sc3ccccc32)n1-c1cccc(Cl)c1	0.1%	3%	22	-0.3
47	CC(=O)NC(CC(=O)OCC(=O)c1cc(C)ccc1C)c1ccccc1 (stereo not drawn)	0.7%	11%	0	·

no.	gsp ag	Sfp inh	TRPV1 PAM
31	1%	·	·
32	-1%[15.4 µM]	·	-5
33	15%	16%	1
34	-11%	16%	-4
35	?	22µM*	14
36	24%	-8%	·
37	8%	15%	-2
38	-30%	·	·
39	-1%[15.4 µM]	21%	-5
40	-38%[inhibitor]	-6%	-16
41	0%	·	·
42	-5%	-1%	-14
43	3%	18%	14
44	-17%	-23%	1
45	-128%[inhibitor]	5%	-11
46	3%	9%	-1
47	-32%[inhibitor]	·	·

Screens (PubChem)
